# HNF4A DNA FP – change in binding of human HNF4A to DNA, primary screen, biochemical, fluorescence polarization, FITC-DNA | 1 h | 360,000 tested, 0.3% active | Hepatocyte nuclear factor 4-alpha (Homo sapiens), P41235 | activity change, % at 10 µM; in the data active means activity change above about 30%, passing the limit was not always enough;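 further: controls were the assay level and a saturating level of protein; the project sought stronger binding though the title names inhibitors; some compounds called inactive have numbers as strong as hits; positive values seem to mean higher polarization but the record does not say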
# Target sequence (P41235 whole entry, looked up): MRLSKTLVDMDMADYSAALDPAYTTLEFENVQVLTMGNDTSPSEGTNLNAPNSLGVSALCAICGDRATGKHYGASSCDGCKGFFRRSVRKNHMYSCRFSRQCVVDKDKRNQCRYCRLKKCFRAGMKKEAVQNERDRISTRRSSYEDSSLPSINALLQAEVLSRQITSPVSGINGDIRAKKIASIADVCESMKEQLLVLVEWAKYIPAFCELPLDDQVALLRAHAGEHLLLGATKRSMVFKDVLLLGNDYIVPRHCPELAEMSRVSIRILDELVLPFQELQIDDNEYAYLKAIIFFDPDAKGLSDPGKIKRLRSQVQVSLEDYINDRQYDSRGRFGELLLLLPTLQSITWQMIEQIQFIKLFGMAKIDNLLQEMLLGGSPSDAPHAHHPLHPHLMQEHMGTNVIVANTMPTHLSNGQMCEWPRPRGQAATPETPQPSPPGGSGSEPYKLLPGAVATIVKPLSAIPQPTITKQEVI
# LANA-H2A inh – blockers of LANA interaction with H2A/H2B – biochemical, FP readout, HTS, primary screen | inhibition, % (test concentration not listed) | 320,000 tested, 0.6% active | cell-free LANA-H2A/H2B peptide, fluorescence polarization; in the data active means inhibition mostly above about 10%, no sharp cut-off; inactive means mostly below about 6.7%;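 further: stock transfer was 7.5 nL into about 10 µL; 0% = median of vehicle wells and 100% = median of positive control wells; one replicate is shown; the record names a cut of 25% in any replicate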
# A1 inh – caspase 3/7 activation in MEF A1-2A-BIM cells, primary screen, A1 inhibitor project, cell-based, luminescence, HTS | Caspase-Glo 3/7 luminescence, 3 h; percent of clofoctol response, vehicle zero | caspase activation, % (no concentration beside the values) | 330,000 tested, 0.066% active | AID 2462, 2010;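 active means over half of replicate activation scores above 10%, or exactly half above 10 with the replicate mean above 10; inconclusive means replicate mean below 10 yet half the replicates above 10; inactive means over half of replicates below 10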;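 further: wells of about 30 µL received 50 nL stock; many hits fall short of the cut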
# B2AR ag – beta2AR agonists driving receptor internalization, primary screen, cell-based, FAP fluorogen, flow cytometry; AID 504454, 2011; response, % (no concentration beside the values); 340,000 tested, 0.43% active; Am2.2-beta2AR cells; reference of the scale not given here; Beta-2 adrenergic receptor (Homo sapiens), P07550;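 active means response above a set limit, near 3 SD of response in nonfluorescent compounds, cut at about 42% in these data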;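 further: stock transfer was 100 nL into about 11 µL; a reference agonist was the positive control; negative values mostly stem from fluorescent compounds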
# UCH37 inh – inhibitors of human UCH37 deubiquitinase, primary screen, biochemical, Ub-AMC cleavage, fluorescence; purified proteasome/UCH37; 330,000 tested, 0.33% active; inhibition, % (test concentration not listed);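 active means mean of two replicates above 20%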;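 further: 0% = compound-free wells with enzyme and 100% = wells lacking proteasome; stock transfer was 100 nL into about 20 µL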
# Target sequence (Q9Y5K5 whole entry, looked up): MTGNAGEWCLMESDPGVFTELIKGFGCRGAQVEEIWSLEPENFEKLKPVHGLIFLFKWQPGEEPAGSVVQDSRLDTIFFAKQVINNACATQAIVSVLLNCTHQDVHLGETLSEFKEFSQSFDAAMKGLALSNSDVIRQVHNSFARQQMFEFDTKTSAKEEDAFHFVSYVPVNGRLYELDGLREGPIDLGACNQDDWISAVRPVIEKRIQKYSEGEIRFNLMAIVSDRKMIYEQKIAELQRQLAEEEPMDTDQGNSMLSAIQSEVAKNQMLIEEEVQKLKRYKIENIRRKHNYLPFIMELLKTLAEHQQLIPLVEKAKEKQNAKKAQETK
#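 Material: Human UCH37 enzyme supplied as purified proteasome complex | Schedule: 30 min preincubation with enzyme, 25 min cleavage at room temperature | Detection: AMC fluorescence 355/460 nm | Measure: % inhibition of Ub-AMC cleavage fluorescence | Controls: Wells without proteasome as full block, compound-free enzyme plus substrate as uninhibited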
# Ecoli growth – E. coli growth inhibition, primary screen, OD600; Escherichia coli growth, 23 h; hits give low values; OD600 absorbance (concentration not given with the values); 330,000 tested, 0.21% active;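 active means OD600 absorbance below the run mean of sample wells minus 3.6 SD, in any replicate, cut at about 0.56 in these data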;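 further: stock transfer was 300 nL into about 60 µL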
# Vif TR-FRET – inhibitors of Vif binding to APOBEC3G peptide, primary screen, biochemical, TR-FRET, GST-Vif 1-94, biotin-A3G peptide, dose response retest (AID 1117319); Virion infectivity factor (Human immunodeficiency virus type 1 group M subtype B (isolate …; TR-FRET GST-Vif / biotin-A3G peptide binding; higher % means a stronger effect; test concentration not given here; strong numbers were not always called active; inhibition, %; hits with a dose series show IC50 in µM; 260,000 tested, 0.57% active;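 active means above the screen mean plus three standard deviations and confirmed in dose response; inconclusive means results disagree or hit not tested in dose response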;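 further: Vif residues 1-94 fused to GST binding biotinylated APOBEC3G peptide 110-148; 0% = full assay without inhibitor and 100% = GST in place of GST-Vif; retest series ran down from 100 µM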
# * marks the source's active call; other numbers are inactive results; ? = inconclusive; nt = not tested or not shown; & = joins results of further samples.
1	CCCOc1ccc(CSC(CC(=O)O)C(=O)O)cc1 (stereo not drawn)
2	CCNC(=S)NNC(=O)c1ccc(OC)cc1
3	CCC(=O)Nc1ccccc1C(=O)OCC(=O)c1cccc2ccccc12
4	Cc1ccc(C(=O)NNC(=O)c2cccs2)cc1
5	COc1ccccc1N1CCN(CC(=O)Nc2ccccc2C(=O)NCCc2ccccc2)CC1
6	CSc1nnc(C)c(=O)n1COC(=O)c1ccc(S(=O)(=O)N2CCOCC2)cc1
screen / no. | 1 | 2 | 3 | 4 | 5 | 6
LANA-H2A inh | 3.8 | 0.3 | 2.7 | -0.7 | nt | -3.5
A1 inh | -0.1 | 0.6 | 1.2 | 0.2 | nt | 0.7
Vif TR-FRET | -10% | -6% | 9% | 6% | -8% | nt
HNF4A DNA FP | 5.2 | -1.9 | -1.6 | 0.6 | 2.4 | -0.2
UCH37 inh | 4.7 | 2.4 | 0.8 | 2.0 | -2.5 | 5.0
B2AR ag | 3 | -2 | -2 | 1 | 13 | -4
Ecoli growth | 0.74 | 0.72 | 0.69 | 0.63 | 0.66 | 0.67

7	Fc1ccc(-c2n[nH]c(=S)c3ccccc23)cc1
8	O=C(CCN1C(=O)c2ccccc2S1(=O)=O)Nc1cc(Cl)ccc1Cl
9	Cc1ccc(N(CC(=O)NC2CCCCC2)C(=O)CCCC(=O)Nc2ccccn2)cc1
10	CCc1cccc(C)c1NC(=O)c1ccc(CN2CCc3ccccc3C2)cc1
11	COc1cc(OC)c(C2=NOC(C(=O)N3CCCc4ccccc43)C2)cc1Cl (stereo not drawn)
12	CCS(=O)(=O)N1CCN(C(=O)COc2ccc(-c3ccccc3)cc2)CC1
screen / no. | 7 | 8 | 9 | 10 | 11 | 12
LANA-H2A inh | 2.9 | -1.0 | -0.1 | -4.1 | -1.5 | 1.2
A1 inh | 0.0 | 0.2 | -0.6 | 0.5 | -0.2 | 0.0
Vif TR-FRET | -22% | nt | nt | 0% | 2% | -1%
HNF4A DNA FP | -1.4 | -0.4 | 6.9 | 3.3 | 0.5 | 11
UCH37 inh | 4.2 | 0.4 | 3.9 | 4.4 | 1.3 | 2.9
B2AR ag | 15 | -12 | -15 | 10 | 9 | -6
Ecoli growth | 0.72 | 0.64 | 0.7 | 0.63 | 0.69 | 0.73

13	COc1ccccc1/C=C/CN1CCSCC1
14	O=c1ccc2cc(S(=O)(=O)Nc3ccccc3F)ccc2o1
15	CCCn1nnc(NC(=O)Cc2ccc(Cl)cc2)n1
16	Cc1ccccc1C(=O)c1cccn1CC(=O)NCCCN1CC(C)CC(C)C1 (stereo not drawn)
17	O=c1cc(O)nc(SCc2ccccc2)n1-c1ccccc1
18	O=C1c2cc(CO)cc(O)c2C(=O)c2c(O[C@@H]3OC(CO)[C@@H](O)[C@@H](O)[C@@H]3O)cccc21 (stereo partly drawn)
screen / no. | 13 | 14 | 15 | 16 | 17 | 18
LANA-H2A inh | -0.1 | 3.3 | -8.3 | 1.6 | -3.6&-1.3 | -4.2
A1 inh | 0.6 | -0.2 | 0.5 | 1.1 | 1.1&1.7 | -0.3
Vif TR-FRET | -2% | nt | -4% | -4% | 28%&-3% | nt
HNF4A DNA FP | 0.5 | -1.7 | -3.5 | 2.8 | -1.7&0.5 | 0.3
UCH37 inh | -0.8 | 7.0 | -1.5 | 2.8 | 2.9&5.5 | 3.3
B2AR ag | -13 | -10 | -4 | -1 | -5&-7 | -2
Ecoli growth | 0.65 | 0.7 | 0.67 | 0.68 | 0.74&0.74 | 0.7

19	CC(NS(=O)(=O)c1ccc2c(c1)oc(=O)n2C)c1ccccc1 (stereo not drawn)
20	Cc1ccc(C(=O)OCCOc2cccc(Cl)c2)cc1S(=O)(=O)N1CCOCC1
21	CCOC(=O)c1nn(-c2ccc3ccccc3c2)cc1O
22	Cc1ccc(C(=O)COC(=O)c2n[nH]c(=O)c3ccccc23)cc1
23	CCN1CCN(c2ccc(NC(=O)c3ccc(OC)c(S(=O)(=O)N4CCCC4)c3)cc2)CC1
24	O=C1NC(Cc2c[nH]c3ccccc23)C(=O)N1CCOc1ccc(F)cc1 (stereo not drawn)
screen / no. | 19 | 20 | 21 | 22 | 23 | 24
LANA-H2A inh | -7.9 | -6.8 | 3.0 | 2.5 | 3.2 | 0.4
A1 inh | -0.2 | 0.2 | -1.9 | -0.5 | 1.5 | -0.3
Vif TR-FRET | -2% | 4% | 18% | 1% | 3% | -4%
HNF4A DNA FP | 6.5 | 6.4 | -1.9 | 0.2 | -1.7 | -2.1
UCH37 inh | 2.9 | 1.6 | -5.5 | 0.9 | 5.5 | 0.2
B2AR ag | -131 | 2 | 3 | 1 | -7 | -2
Ecoli growth | 0.71 | 0.61 | 0.66 | 0.77 | 0.64 | 0.66

# 11 of the compounds above, with two lines to a compound.
# Screens in order: LANA-H2A inh | A1 inh | Vif TR-FRET | HNF4A DNA FP | UCH37 inh | B2AR ag | Ecoli growth
14	O=c1ccc2cc(S(=O)(=O)Nc3ccccc3F)ccc2o1
  3.3 | -0.2 | nt | -1.7 | 7.0 | -10 | 0.7
15	CCCn1nnc(NC(=O)Cc2ccc(Cl)cc2)n1
  -8.3 | 0.5 | -4% | -3.5 | -1.5 | -4 | 0.67
16	Cc1ccccc1C(=O)c1cccn1CC(=O)NCCCN1CC(C)CC(C)C1 (stereo not drawn)
  1.6 | 1.1 | -4% | 2.8 | 2.8 | -1 | 0.68
17	O=c1cc(O)nc(SCc2ccccc2)n1-c1ccccc1
  -3.6&-1.3 | 1.1&1.7 | 28%&-3% | -1.7&0.5 | 2.9&5.5 | -5&-7 | 0.74&0.74
18	O=C1c2cc(CO)cc(O)c2C(=O)c2c(O[C@@H]3OC(CO)[C@@H](O)[C@@H](O)[C@@H]3O)cccc21 (stereo partly drawn)
  -4.2 | -0.3 | nt | 0.3 | 3.3 | -2 | 0.7
19	CC(NS(=O)(=O)c1ccc2c(c1)oc(=O)n2C)c1ccccc1 (stereo not drawn)
  -7.9 | -0.2 | -2% | 6.5 | 2.9 | -131 | 0.71
20	Cc1ccc(C(=O)OCCOc2cccc(Cl)c2)cc1S(=O)(=O)N1CCOCC1
  -6.8 | 0.2 | 4% | 6.4 | 1.6 | 2 | 0.61
21	CCOC(=O)c1nn(-c2ccc3ccccc3c2)cc1O
  3.0 | -1.9 | 18% | -1.9 | -5.5 | 3 | 0.66
22	Cc1ccc(C(=O)COC(=O)c2n[nH]c(=O)c3ccccc23)cc1
  2.5 | -0.5 | 1% | 0.2 | 0.9 | 1 | 0.77
23	CCN1CCN(c2ccc(NC(=O)c3ccc(OC)c(S(=O)(=O)N4CCCC4)c3)cc2)CC1
  3.2 | 1.5 | 3% | -1.7 | 5.5 | -7 | 0.64
24	O=C1NC(Cc2c[nH]c3ccccc23)C(=O)N1CCOc1ccc(F)cc1 (stereo not drawn)
  0.4 | -0.3 | -4% | -2.1 | 0.2 | -2 | 0.66

# More results follow:
25	Cc1ccc(CNc2cc(C(=O)O)ccc2C)s1
26	Cc1ccn2cc(CNS(=O)(=O)c3ccc4c(c3)OCCO4)nc2c1
27	COc1ccc(NS(=O)(=O)c2c(C)n(C)c(=O)n(C)c2=O)cc1OC
28	O=C(COC(=O)[C@@H]1CCCN1S(=O)(=O)c1ccccc1F)NCc1ccc2c(c1)OCO2
29	COc1ccc(CC(=O)Nc2ccc(S(=O)(=O)N3CCCC3)cc2)c(OC)c1
30	Cn1c(=O)[nH]c(=O)c2c1nc(Br)n2CCCO
screen / no. | 25 | 26 | 27 | 28 | 29 | 30
LANA-H2A inh | -2.7 | 3.7 | -2.3 | -9.5 | -2.6 | 4.4*
A1 inh | -0.2 | 0.0 | -0.2 | 0.3 | -0.4 | 1.2
Vif TR-FRET | nt | -3% | 18% | 2% | nt | ?
HNF4A DNA FP | -2.7 | 1.9 | -1.5 | 0.2 | 2.1 | 1.9
UCH37 inh | nt | 1.2 | 5.1 | 0.3 | 4.0 | 0.1
B2AR ag | 1 | 0 | -1 | 1 | -5 | 7
Ecoli growth | nt | 0.63 | 0.74 | 0.66 | 0.69 | 0.66

31	CCN(CC)S(=O)(=O)c1ccc(N2CCOCC2)c(NC(=O)c2ccc(C#N)cc2)c1
32	O=C(C#Cc1ccccc1)Nc1ccccc1F
33	Cn1cccc1C(=O)OCC(=O)NC(=O)c1ccc(Cl)cc1
34	CCOC(=O)c1cnn(-c2cc(Oc3ccccc3C)ncn2)c1N
35	Cc1cc(NC(=O)CCN2CCC(C(N)=O)CC2)ccc1Br
36	CC1Oc2ccccc2N(CC(=O)Nc2ccc3c(c2)OCO3)C1=O (stereo not drawn)
screen / no. | 31 | 32 | 33 | 34 | 35 | 36
LANA-H2A inh | 3.1 | -3.0 | -4.6 | -2.6 | 7.2 | 1.1
A1 inh | 0.0 | -12 | -0.1 | -0.6 | 0.5 | -0.3
Vif TR-FRET | -13% | nt | -4% | 3% | 3% | 4%
HNF4A DNA FP | -4.3 | -0.7 | 8.0 | -0.1 | 0.9 | -1.9
UCH37 inh | 1.0 | 2.3 | -2.8 | -1.1 | 4.2 | 1.5
B2AR ag | 5 | -3 | 4 | 6 | -2 | 1
Ecoli growth | 0.65 | 0.66 | 0.67 | 0.73 | 0.65 | 0.74
